# Ecoli rRNA inh – inhibitors of bacterial rRNA selective over humanized ribosomes; AID 720706; E. coli WT GFP vs humanized-ribosome RFP mutants, fluorescence, 24 h; active compounds read low; DMSO median 0, no signal -100; GFP signal change (wild-type ribosome), % (concentration not given with the values); 350,000 compounds, 1.6% hits;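 active = significant combined selectivity score with lowered wild-type GFP, culture density cut under 30%, mutant RFP and density less affected; inactive = any of these conditions unmet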; also: one replicate is shown; some compounds called inactive have numbers as strong as hits
# HNF4A DNA FP – change in binding of human HNF4 alpha to DNA | activity change, % at 10 µM | 360,000 compounds, 0.3% hits | AID 1224865 | HNF4a-FITC DNA binding, fluorescence polarization, 1 h; in the data active = activity change above about 30%, passing the limit was not always enough;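 also: controls were the assay level and a saturating level of protein; the project sought stronger binding though the title names inhibitors; some compounds called inactive have numbers as strong as hits; positive values seem to mean higher polarization but the record does not say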
# Ecoli growth – E. coli growth inhibition. OD600 absorbance (no concentration beside the values). Escherichia coli growth, OD600, 23 h; active compounds read low. AID 1053175. 330,000 compounds, 0.21% hits;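 active = OD600 absorbance below the run mean of sample wells minus 3.6 SD, in any replicate, cut at about 0.56 in these data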;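 also: stock transfer was 300 nL into about 60 µL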
# AF4-AF9 inh – MLL-AF4/AF9 protein interaction inhibition. P42568. AlphaScreen, biotin-AF4 peptide binding to FLAG-AF9. inhibition, % at 10 µM. 350,000 compounds, 0.47% hits;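 active = every replicate reaching a set inhibition limit, whatever the replicate mean, cut at about 25% in these data; inconclusive = mean inhibition reaches that limit but some replicates miss it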;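 also: 0% = plate neutral control median and 100% = total signal loss; the record names both 10 and 1 µM as test concentration; the first replicate is given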
# Target sequence (P42568 whole entry, looked up): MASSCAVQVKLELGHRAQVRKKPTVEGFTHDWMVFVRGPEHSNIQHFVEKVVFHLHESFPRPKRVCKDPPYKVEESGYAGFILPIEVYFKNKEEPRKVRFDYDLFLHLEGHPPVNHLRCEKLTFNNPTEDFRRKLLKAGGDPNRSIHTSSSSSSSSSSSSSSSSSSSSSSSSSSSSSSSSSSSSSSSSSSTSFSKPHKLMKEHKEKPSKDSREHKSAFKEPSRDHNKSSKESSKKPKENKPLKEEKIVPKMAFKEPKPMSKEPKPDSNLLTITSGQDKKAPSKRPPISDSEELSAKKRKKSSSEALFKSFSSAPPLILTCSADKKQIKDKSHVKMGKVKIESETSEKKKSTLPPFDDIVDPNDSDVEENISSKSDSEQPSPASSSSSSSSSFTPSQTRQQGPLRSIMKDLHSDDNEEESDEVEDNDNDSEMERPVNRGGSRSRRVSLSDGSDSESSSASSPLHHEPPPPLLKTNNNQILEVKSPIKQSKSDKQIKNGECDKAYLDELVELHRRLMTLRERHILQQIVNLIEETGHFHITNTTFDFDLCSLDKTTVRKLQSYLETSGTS
# Vif A3G – HIV-1 Vif–A3G interaction blockers – biochemical, TR-FRET, GST-Vif 1-94, biotin-A3G peptide, dose response retest, primary screen (AID 1117319). inhibition, %, or IC50 in µM where a hit was titrated. TR-FRET GST-Vif / biotin-A3G peptide binding; higher % means a stronger effect; test concentration not given here; strong numbers were not always called active. 260,000 compounds, 0.57% hits;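 active = above the screen mean plus three standard deviations and confirmed in dose response; inconclusive = results disagree or hit not tested in dose response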;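 also: Vif residues 1-94 fused to GST binding biotinylated APOBEC3G peptide 110-148; 0% = full assay without inhibitor and 100% = GST in place of GST-Vif; retest series ran down from 100 µM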
# FGF22 binding – binders of recombinant human FGF22 by thermal shift | Q9HCT0 | SYPRO orange fluorescence; percent of sucrose octasulfate shift, DMSO zero | calls only at 9.99 µM | 340,000 compounds, 1.5% hits;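 active = melting point raised past a set limit in the mean and every replicate; inconclusive = no clear call; three in four hits are not shown here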
# Target sequence (Q9HCT0 whole entry, looked up): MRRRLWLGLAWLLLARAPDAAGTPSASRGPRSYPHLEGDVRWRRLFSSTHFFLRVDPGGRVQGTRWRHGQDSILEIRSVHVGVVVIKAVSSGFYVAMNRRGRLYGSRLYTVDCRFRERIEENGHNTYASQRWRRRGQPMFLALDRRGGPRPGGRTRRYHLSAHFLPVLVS
# ALR inh – blocks human ALR sulfhydryl oxidase activity; purified ALR, DTT oxidation, H2O2 HRP-luminol luminescence; inhibition, % (test concentration not listed); 290,000 compounds, 3.8% hits; AID 485317;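 active = mean and each replicate at 75% or more; inconclusive = only one of the two met; inactive = neither met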;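 also: stock transfer was 7.5 nL into about 7.5 µL; 0% = neutral wells and 100% = wells with inactivated enzyme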
# Target sequence (P55789 whole entry, looked up): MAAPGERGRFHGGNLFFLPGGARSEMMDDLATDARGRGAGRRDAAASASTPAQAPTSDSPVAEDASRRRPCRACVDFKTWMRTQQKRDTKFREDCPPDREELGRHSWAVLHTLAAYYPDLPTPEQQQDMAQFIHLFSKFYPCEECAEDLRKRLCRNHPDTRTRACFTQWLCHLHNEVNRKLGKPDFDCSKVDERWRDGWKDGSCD
# Ecoli rRNA inh OD600 – further read-out of Ecoli rRNA inh, marked with its call; OD600 change, %; measured here: OD600 growth;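 optical density of the mix in the first replicate; 0 = DMSO median and -100 = no signal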
# Ecoli rRNA inh RFP – also measured in Ecoli rRNA inh; calls as there; RFP signal change, %; measured here: RFP humanized mutant strains;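 first replicate; 0 = DMSO median and -100 = no signal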
# * = called active by the depositor; i = inactive; ? = inconclusive; . = no result given; + = active, no number; & = joins results of further samples. Only part of the results is shown, so the mix of outcomes need not match the whole.
SMILES,Ecoli rRNA inh,Ecoli rRNA inh OD600,Ecoli rRNA inh RFP,HNF4A DNA FP,Ecoli growth,AF4-AF9 inh,Vif A3G,FGF22 binding,ALR inh
Cc1ccc(-c2ccc(CN3C(C)C(=O)N(Cc4cn(Cc5ccco5)nn4)CCS3(=O)=O)cc2)c(C)c1 (stereo not drawn),-5.1,-16.3,8.9,-2.1,.,2.5,.,i,.
Cn1cc(Cl)c(C(=O)Nc2nc3ccc(Cl)cc3s2)n1,.,.,.,3.4,0.735,.,-6.8%,.,-2.0
CN(C(=S)NC(=O)c1ccc(F)cc1)C1CCCCC1,-6.3,0.6,1.8,-3.1,0.71,3.0,2.6%,i,2.1
CC(=O)CCS(=O)(=O)c1ccc(C)c(C)c1,.,.,.,4.0,0.739,.,-5.7%,.,3.1
CC(=O)Nc1cc2c(cc1Br)-c1ccccc1C2,5.2,1.4,1.8,-2.2,0.697,-11.9,-20.1%,i,.
Cc1cccc(N2CCN(C(=O)C3CCN(c4nnc(-n5cccc5)s4)CC3)CC2C)c1 (stereo not drawn),-6.9,-15.8,-2.4,-0.8,0.769,0.4,?,i,17.2
COc1cccc(-c2c(C(=O)N/N=C(\C)c3ccc(Cl)s3)nnn2-c2nonc2N)c1,1.8,3.4,-3.7,1.6,.,4.4,.,i,-4.4
CN(Cc1ccco1)C(=O)Cn1c(=O)oc2cc(S(=O)(=O)NCc3ccccc3)ccc21,-0.9,6.5,1.6,1.0,0.75,-1.0,-2.7%,i,0.2
O=C(Nc1ccc2c(c1)OCO2)N[C@@H]1CC[C@@H](CC(=O)N2CCN(c3ccccc3)CC2)O[C@@H]1CO,-2.4,3.6,0.5,.,.,0.4,.,i,.
O=C(NCCc1ccccc1)c1ccc(Cl)nc1,.,.,.,0.9,0.712,.,?,.,-2.4
CCOCCCn1c(=NC(C)=O)c(C#N)cc2c(=O)n3ccccc3nc21,.,.,.,-4.0,0.664,-2.6,.,i,.
CCn1c(COc2cccc(OC)c2)nnc1SCC(=O)NC1CCCC1,0.2,11.1,-0.3,-1.3,0.701,0.0,.,i,.
COc1cc(OC)c(C(=O)NCc2cccnc2)cc1OC,11.8,1.3,-0.4,3.6,0.724,-0.1,?,i,-20.9
CCOc1ccc2nc(NS(=O)(=O)c3ccc(NC(C)=O)cc3)sc2c1,.,.,.,-3.6,0.733,.,?,.,-1.5
Cn1c(=O)cc(OCCCC(=O)NCc2ccco2)c2ccccc21,.,.,.,-4.5,0.66,.,5.6%,.,-1.6
CC(C)NC(=O)Nc1ccc2c(c1)CC(=O)N([C@H](C)CO)C[C@H](C)[C@@H](CN(C)C)O2,-0.4,9.8,-3.7,.,.,-2.1,.,i,.
CCc1cc(C(=O)O)c(NC(=O)/C=C/c2ccc(OC)c(OC)c2)s1,-35.0,-33.5,-20.5,2.2,0.633,-2.7,-7.3%,i,-2.8
O=S(=O)(NC[C@H]1[C@@H](c2ccccc2)[C@H](CO)N1CC1CC1)c1ccccc1,0.8,3.3,1.2,.,.,0.4,.,i,.
CCOc1ccccc1C(=O)Nc1cc(C)ccc1NC(=O)c1ccco1,-7.9,-8.4,1.6,-0.1,0.679,0.8,.,+,2.8
Cc1noc(C)c1C(=O)Nc1ccc(Cl)cc1C(F)(F)F,.,.,.,-0.6,0.75,-19.8,?,i,1.8
Cc1cc(C(=O)COC(=O)c2n[nH]c3ccccc23)c(C)n1C,.,.,.,-4.2,0.625,.,11.0%,.,1.2
COCCN1CCN(Cc2cn(C)nc2-c2ccc(Oc3ccccc3)cc2)CC1,-0.2,0.6,4.5,2.5,0.69,-0.2,-6.5%,i,2.0
O=C(Oc1ccccc1Cl)c1ccc2c(=O)n3c(nc2c1)CCC3,-1.8,-6.0,2.1,0.4,0.684,5.2,11.5%,i,11.9
COC(=O)Cc1nnn2c1[C@H](C)[C@H](c1ccccc1Br)OC[C@@H]2c1ccccc1,-17.7,-44.5,-2.6,.,.,1.9,.,.,.
CC1CCc2nn(CC(=O)NCCC3=CCCCC3)cc2C1 (stereo not drawn),-20.3,-34.5,-4.8,1.1,0.698,8.9,-1.1%,i,-12.5
CCOC(=O)c1c(NC(=O)c2ccc(S(=O)(=O)N3CCOCC3)cc2)sc2c1CCN(C(C)C)C2,-5.9,2.7,6.8,10.3,0.677,4.7,-8.0%,i,-0.3
Cc1ccc(CN(C)C(=O)c2ccccc2Oc2ccccc2)o1,.,.,.,0.3,0.689,.,?,.,37.7
COc1ccc(-c2cc(C3CC3)nc(N)c2C#N)cc1,-4.0,-11.2,1.3,6.1,0.684,-1.6,-0.5%,i,-8.3
COC(=O)c1ccc(N2CCC(c3cc(-c4ccc(OC)cc4)n[nH]3)CC2)c([N+](=O)[O-])c1,.,.,.,0.8,0.752,.,13.7%,.,-3.3
COc1ccccc1-c1ccc2n(c1=O)C[C@@H]1[C@@H](CO)[C@H](C(=O)N(C)C)N[C@H]21,-0.3,3.2,-0.5,.,.,-6.4,.,i,.
Cc1nn(-c2ccccc2)c(OC(=O)c2cccs2)c1S(=O)(=O)c1ccccc1,.,.,.,1.6,0.743,.,-8.6%&13.7%,.,.
CC(C)CC(=O)N=C1SC2CS(=O)(=O)CC2N1Cc1ccccc1 (stereo not drawn),8.3,6.8,3.1,-5.4,0.718,-1.9,-2.1%,i,-23.0
Cc1ccc([C@H]2N[C@]3(CCCN(Cc4ccc(Cl)cc4)C3=O)[C@H]3C(=O)N(Cc4ccccc4)C(=O)[C@@H]23)cc1,-8.2,-3.4,-1.9,3.2,.,0.6,.,i,.
CC(=O)N1CC[C@@H]2[C@H](CO)Nc3ccc(C#Cc4ccccc4F)cc3[C@@H]21,10.6,-15.1,0.6,.,.,-3.0,.,i,.
Cc1noc(NS(=O)(=O)c2ccc(NC(=O)CCCOc3ccc(Cl)cc3Cl)cc2)c1C,-34.5,-43.9,-4.7,-1.7,0.719,.,2.8%,.,2.5
C=CCNC(=O)C1CCCN(S(C)(=O)=O)C1 (stereo not drawn),15.1,9.9,-2.8,3.1,0.648,5.6,-2.8%,i,0.4

# Some of these compounds in order of the Ecoli rRNA inh RFP value, high to low:
compound	Ecoli rRNA inh	Ecoli rRNA inh OD600	Ecoli rRNA inh RFP	HNF4A DNA FP	AF4-AF9 inh	Vif A3G	FGF22 binding	ALR inh
CC(=O)N1CC[C@@H]2[C@H](CO)Nc3ccc(C#Cc4ccccc4F)cc3[C@@H]21	10.6	-15.1	0.6	.	-3.0	.	i	.
COc1ccccc1-c1ccc2n(c1=O)C[C@@H]1[C@@H](CO)[C@H](C(=O)N(C)C)N[C@H]21	-0.3	3.2	-0.5	.	-6.4	.	i	.
Cc1ccc([C@H]2N[C@]3(CCCN(Cc4ccc(Cl)cc4)C3=O)[C@H]3C(=O)N(Cc4ccccc4)C(=O)[C@@H]23)cc1	-8.2	-3.4	-1.9	3.2	0.6	.	i	.
CC1CCc2nn(CC(=O)NCCC3=CCCCC3)cc2C1 (stereo not drawn)	-20.3	-34.5	-4.8	1.1	8.9	-1.1%	i	-12.5

# (next part)
SMILES,Ecoli rRNA inh,Ecoli rRNA inh OD600,Ecoli rRNA inh RFP,HNF4A DNA FP,Ecoli growth,AF4-AF9 inh,Vif A3G,FGF22 binding,ALR inh
CCOC(=O)CNC(c1ccccc1)c1cc(Br)ccc1NC(=O)OCC (stereo not drawn),.,.,.,-0.5,0.739,.,28.8%,.,-4.1
O=C(C[C@H]1C[C@H]2c3cc(NS(=O)(=O)c4ccc(F)cc4)ccc3O[C@H]2[C@H](CO)O1)NCc1ccc(Oc2ccccc2)cc1,-8.2,-28.0,36.0,.,.,-0.3,.,i,.
O=C(Nc1cccc(-c2nc3ccccc3o2)c1)c1ccc(N2C(=O)C3C4C=CC(C4)C3C2=O)cc1 (stereo not drawn),.,.,.,0.1,0.725,.,-2.1%,.,-3.5
C=CCN(c1ccccc1)S(=O)(=O)c1cccc(C(=O)Nc2ncccc2C)c1,-7.7,-14.4,-3.1,1.3,0.715,9.2,.,i,-0.5
Cc1ccc(S(=O)(=O)N2CCC(=O)N(C(COCc3ccccc3)Cc3ccccc3)CC2)cc1 (stereo not drawn),-11.8,-9.9,-9.4,-1.9,0.695,2.6,.,i,0.4
Cc1nc(C)n(CCNS(=O)(=O)c2ccc(C)c(C)c2)n1,-0.2,19.1,-2.9,0.4,0.641,-1.6,.,i,-1.3
CC(C)CCn1c(SCc2ccc(Cl)cc2)nc2c1c(=O)[nH]c(=O)n2C,.,.,.,1.0,0.748,.,0.7%,.,-7.6
C[C@H]1CN([C@@H](C)CO)C(=O)Cc2cc(N(C)C)ccc2O[C@H]1CN(C)Cc1ccc(-c2ccccc2)cc1,-12.2,-45.2,16.2,.,.,44.2*,.,i,.
Cc1noc(C)c1CC(=O)NC1CC(C)(C)Cc2c1cnn2-c1ccccc1 (stereo not drawn),0.0,1.2,0.9,-2.8,0.724,0.6,4.9%,i,0.4
Nc1nc(NCCCN2CCOCC2)nc(Nc2ccc(Cl)cc2)c1[N+](=O)[O-],19.0,1.3,6.6,-2.5,0.613,-2.1,-6.0%,i,-1.3
CCOC(=O)N1CCC(c2cc(=O)n3[nH]ccc3n2)CC1,10.7,11.9,-1.4,0.5,0.763,-5.6,-0.2%,i,-3.2
Cc1ccc(CN2CCN(/N=C/c3cc(Br)ccc3O)CC2)cc1,.,.,.,1.2,.,.,-5.8%,.,-2.2
Cc1cccc(NC(=O)c2cnc3sccn3c2=O)n1,0.3,-8.3,-3.0,-2.0,0.703,3.0,.,i,.
O=C(C[C@H]1CC[C@H](NC(=O)c2ccncc2)[C@@H](CO)O1)Nc1ccccc1,3.2,5.0,-0.4,.,.,-1.1,.,i,.
Fc1ccc(N=Cc2ccc[nH]2)cc1,11.5,14.2,8.4,-4.4,0.69,0.3,-2.2%,i,-5.8
Cc1cc(=O)oc2cc(OCC3CC(c4ccc(Cl)cc4)=NO3)ccc12 (stereo not drawn),.,.,.,-4.7,0.641,.,-2.8%,.,-13.8
CC(C)C(=O)NC(NC(=S)Nc1ccc(S(N)(=O)=O)cc1)C(Cl)(Cl)Cl (stereo not drawn),.,.,.,1.5,0.67,.,?,.,22.4
CCn1cc(C(=O)OCC(=O)N2C(C)CCCC2C)c(=O)c2ccc(C)nc21 (stereo not drawn),-28.1,-41.5,5.7,-1.4,0.661,-2.0,2.2%,i,-1.8
COc1ccc(S(=O)(=O)Nc2ccc3c(c2)CC(=O)N([C@H](C)CO)C[C@@H](C)[C@@H](CN(C)Cc2ccc(-c4ccccc4)cc2)O3)cc1,2.0,-1.2,-1.1,.,.,-0.6,.,i,.
CCSc1nc(N2CCOCC2)c2c(c1C#N)CC(C)(C)N(C)C2,.,.,.,-2.5,0.729,.,4.4%,.,.
COc1ccc([N+](=O)[O-])cc1NS(=O)(=O)Cc1ccccc1,5.4,5.3,1.1,0.6,0.678,0.3,.,i,-3.7
Cc1ccccc1Nc1nnc(SCc2cc([N+](=O)[O-])cc3c2OCOC3)s1,-23.4,-20.2,7.1,1.6,0.663,-10.1,-2.8%,i,-0.7
CC(C)(Cc1ccccc1)NC(=O)C(=O)c1cn(CC(=O)N2CCOCC2)c2ccccc12,2.7,-1.5,4.6,6.2,0.698,3.4,6.9%,i,-12.6
COc1ccccc1C(=O)N1CC2(C)CC1CC(C)(C)C2 (stereo not drawn),.,.,.,0.4,0.745,.,-1.1%,.,.
CO[C@@H](CN(C)Cc1ccc2c(c1)OCO2)[C@H](C)CN(C(=O)Nc1ccc(F)cc1)[C@H](C)CO,6.6,8.0,-2.0,.,.,3.4,.,i,.
CCc1ccc(N(C(=O)c2csnn2)C(C(=O)NC(C)(C)CC)c2ccccn2)cc1 (stereo not drawn),3.9,-1.8,4.7,-0.6,0.662,0.0,-4.1%,i,-5.0
